RVFV N-RNA inh = inhibitors of RVFV nucleoprotein–RNA binding, primary screen, biochemical, fluorescence polarization; P21700; RVFV N-RNA binding; hits give low values; % bound, % (test concentration not listed); hit rate 0.1% among 20,000;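 active = between 0 and 58% in either replicate with normal brightness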;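 also: 100 nL library stock added to about 12 µL; 100% = protein and probe without compound and 0% = probe alone; numbers are from one replicate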
Target sequence (P21700 whole entry, looked up): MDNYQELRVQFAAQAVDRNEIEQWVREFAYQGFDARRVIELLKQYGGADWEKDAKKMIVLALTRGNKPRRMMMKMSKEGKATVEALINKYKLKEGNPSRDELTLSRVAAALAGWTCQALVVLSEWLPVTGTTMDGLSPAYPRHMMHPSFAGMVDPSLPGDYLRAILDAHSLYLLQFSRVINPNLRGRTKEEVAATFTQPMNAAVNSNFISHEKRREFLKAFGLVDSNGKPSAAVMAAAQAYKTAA
Starred values were filed as active, the others as inactive; & = joins results of further samples. The list is partial (hit frequency here may not be typical).

Screening CCOC(=O)C1CCN(c2ccccc2CN2CCC(c3ccccc3OC)CC2)CC1 returned RVFV N-RNA inh 102.
For CC(=O)Oc1ccccc1C(=O)Oc1ccc(C#N)cc1 the results were RVFV N-RNA inh 89.
For CCOC(=O)C1=C(C)NC(=O)C1 the results were RVFV N-RNA inh 89.
For CCc1ccnc(NS(=O)(=O)c2ccc(C)c(Cl)c2)c1 the results were RVFV N-RNA inh 95.
`CC(C)CNC(=O)c1ccc2c(c1)C(=O)N(C1CCCCC1)C2=O` gave RVFV N-RNA inh 100.
For NC(=Nc1ccccc1)NC(=O)c1nc(Cl)c(N)nc1N the results were RVFV N-RNA inh 97&94.
COCCNC(=O)c1cc(Br)c(C)c(C)c1C was read as RVFV N-RNA inh 95.
`CCCOc1ccc(C(=O)N(C)c2ccccc2)cc1` gave RVFV N-RNA inh 93.
Screening CC(=O)Oc1ccc2c(=O)c(Oc3ccccc3)coc2c1 returned RVFV N-RNA inh 92.
For COc1ccccc1NNC(=O)c1cccnc1Oc1ccccc1 the results were RVFV N-RNA inh 94.
Screening O=C(CSc1nc2c(c(=O)[nH]1)CN(Cc1ccc(Cl)cc1)CC2)NCc1ccccc1 returned RVFV N-RNA inh 97.
`Cc1cccn2cc(-c3cccc(S(=O)(=O)N4CCOCC4)c3)nc12` gave RVFV N-RNA inh 95.
`Cc1ccc(S(=O)(=O)NC2CCCC2)cc1` gave RVFV N-RNA inh 94.
CCC(=O)Nc1ccccc1-c1nnc(SCc2ccccc2)[nH]c1=O was read as RVFV N-RNA inh 100.
OCc1cnc[nH]1 was read as RVFV N-RNA inh 93.
`CCCCNC(=O)C1CC(=O)N(c2ccc(Cl)cc2)C1` (centres undefined) gave RVFV N-RNA inh 97.
`Cn1ncc2c(c(SCc3ccc(Cl)cc3Cl)nn2C)c1=O` gave RVFV N-RNA inh 94.
Screening CCNC(=O)COc1ccc(OCc2ccccc2)cc1 returned RVFV N-RNA inh 97.
COC(=O)c1cccc(N2C(=O)c3ccc(C(=O)O)cc3C2=O)c1 was read as RVFV N-RNA inh 96.
CCC(=O)c1ccc(OCC(O)CN2CCN(S(=O)(=O)N3CCCCC3)CC2)cc1 (centres undefined) was read as RVFV N-RNA inh 90.

Of the compounds above, these have an aryl thioether with sulfur outside any ring:
Screening O=C(CSc1nc2c(c(=O)[nH]1)CN(Cc1ccc(Cl)cc1)CC2)NCc1ccccc1 returned RVFV N-RNA inh 97.
CCC(=O)Nc1ccccc1-c1nnc(SCc2ccccc2)[nH]c1=O was read as RVFV N-RNA inh 100.
`Cn1ncc2c(c(SCc3ccc(Cl)cc3Cl)nn2C)c1=O` gave RVFV N-RNA inh 94.

Other records:
`C/C(=N\N)c1ccc2[nH]c3c(c2c1)CCC/C3=N\N` gave RVFV N-RNA inh 98.
Screening O=C(Cn1cnc2c(cnn2-c2ccc(F)cc2)c1=O)NC1CCCC1 returned RVFV N-RNA inh 96.
For CNC(=O)c1c(NC(=O)/C=C/c2cccs2)sc(C)c1C the results were RVFV N-RNA inh 103.
For NC(=S)Cc1ccc(CC(N)=S)o1 the results were RVFV N-RNA inh 102.
`CC1=C(C(N)=O)C(c2ccccc2F)NC(=O)N1` (centres undefined) gave RVFV N-RNA inh 89.
`Oc1ccccc1CNc1ccc2c(c1)ncn2C1CCCCC1` gave RVFV N-RNA inh 96.
`CCOC(=O)CC(C)(O)c1ccccc1` (centres undefined) gave RVFV N-RNA inh 92.
Screening CN(c1ccccc1C(=O)O)S(=O)(=O)c1ccc(F)cc1 returned RVFV N-RNA inh 99.
Cc1cc(NC(=O)Cn2cnc3c(oc4ccccc43)c2=O)no1 was read as RVFV N-RNA inh 98.
COc1c(Br)cc(Br)c2c1OCCO2 was read as RVFV N-RNA inh 98.
Screening N#Cc1ccc(Nc2ccccc2)c(N)c1 returned RVFV N-RNA inh 92.
Screening CC(=O)N(C)c1ccccc1C(=O)O returned RVFV N-RNA inh 92.
For C=CC(C)n1c(=O)c2c(nc3n2CCN3c2ccc(Cl)cc2)n(C)c1=O (centres undefined) the results were RVFV N-RNA inh 104.
Screening CC(C)(C)OC(=O)N1CCN(S(=O)(=O)c2ccc(N3C(=O)CC4(CCCC4)C3=O)c(Cl)c2)CC1 returned RVFV N-RNA inh 85.
Cc1ccc2nc(NC(=O)Nc3ccccc3)sc2c1 was read as RVFV N-RNA inh 96.
For Cc1cc(C)c2c3c(oc2n1)C(=O)N(c1cccc(C(F)(F)F)c1)CC(=O)N3 the results were RVFV N-RNA inh 96.
COc1ccc(S(=O)(=O)Nc2ccc(S(=O)(=O)N3CCCC3)cc2)cc1Cl was read as RVFV N-RNA inh 98.
COc1ccccc1CN=C(C)c1ccccc1O was read as RVFV N-RNA inh 86.
Screening CCOC(=O)c1sc(NC(=S)Nc2ccc(N3CCOCC3)c3nonc23)c(C(=O)OCC)c1C returned RVFV N-RNA inh 96.
For S=C(N/N=C\c1ccn[nH]1)Nc1ccc(Cl)cc1 the results were RVFV N-RNA inh 93.

Sorted by count of non-hydrogen atoms (smallest number first): three of the compounds above.
Screening N#Cc1ccc(Nc2ccccc2)c(N)c1 returned RVFV N-RNA inh 92.
Screening O=C(Cn1cnc2c(cnn2-c2ccc(F)cc2)c1=O)NC1CCCC1 returned RVFV N-RNA inh 96.
For Cc1cc(C)c2c3c(oc2n1)C(=O)N(c1cccc(C(F)(F)F)c1)CC(=O)N3 the results were RVFV N-RNA inh 96.

Quoted at random: two compounds from above
Cc1cc(NC(=O)Cn2cnc3c(oc4ccccc43)c2=O)no1 was read as RVFV N-RNA inh 98.
COc1ccc(S(=O)(=O)Nc2ccc(S(=O)(=O)N3CCCC3)cc2)cc1Cl was read as RVFV N-RNA inh 98.

(list continues)
`CCCc1cc(=O)[nH]c(N/N=C/C=C\c2ccccc2)n1` gave RVFV N-RNA inh 91.
Screening O=S(=O)(c1cccs1)N1CCN(c2ccccc2Cl)CC1 returned RVFV N-RNA inh 102.
OCCNC(=S)Nc1ccc(Oc2ccccc2)cc1 was read as RVFV N-RNA inh 92.
For O=C(CSc1nnc(CNC(=O)c2cccs2)o1)Nc1ccccc1 the results were RVFV N-RNA inh 92.
For O=C(O)CCC(C(=O)O)N1C(=O)/C(=C/C=C/c2ccco2)SC1=S (centres undefined) the results were RVFV N-RNA inh 87.
Screening COCc1cc(C)nc(SCC(=O)OC(C)C)c1C#N returned RVFV N-RNA inh 96.
Screening CSc1c(NC(=O)/C=C\C(=O)O)cccc1C(F)(F)F returned RVFV N-RNA inh 95.
For COC(=O)C(NC(=O)c1ccc(Cl)cc1Cl)C(C)C (centres undefined) the results were RVFV N-RNA inh 90.
For Cc1ccc(C=Nc2ccc(Cl)cc2)o1 the results were RVFV N-RNA inh 104.
Screening CCc1nnc(NC(=O)C2CCCN2C(=O)Nc2ccccc2)s1 (centres undefined) returned RVFV N-RNA inh 98.
Screening CC(=O)Nc1sc2c(c1C#N)CCN(C(C)=O)C2 returned RVFV N-RNA inh 95.
O=C(NCC(=O)N1CCOCC1)c1ccc(Br)cc1 was read as RVFV N-RNA inh 92.
`O=CN1CCN(C(=O)c2ccco2)CC1` gave RVFV N-RNA inh 90.
`CC1(C)C(=O)OC(C(=O)c2ccccc2)C(C)(C)C1=O` (centres undefined) gave RVFV N-RNA inh 96.
Screening Cc1nc(S(=O)(=O)NCc2cc(F)cc3c2OCOC3)cn1C returned RVFV N-RNA inh 87.
CCOc1cc(Cl)c(S(=O)(=O)n2ccnc2CC)cc1Cl was read as RVFV N-RNA inh 95.
For Oc1[nH]c2ccccc2c1C=NCCN1CCOCC1 the results were RVFV N-RNA inh 96.
Screening CN1CCN(C(=O)C(NC(=O)c2ccc(Cl)cc2)C23CC4CC(CC(C4)C2)C3)CC1 (centres undefined) returned RVFV N-RNA inh 111.
CCN(CC)CC(O)Cn1c(-c2ccccc2Cl)nc2ccccc21 (centres undefined) was read as RVFV N-RNA inh 94.
Screening CCN(CC)S(=O)(=O)c1ccc2c3c(cccc13)C(=O)N2C(=O)c1cccnc1 returned RVFV N-RNA inh 97.
For OCCNc1nc2ccc(Cl)cc2[nH]1 the results were RVFV N-RNA inh 89.
Screening Nc1cc(C(=O)N2CCCC2)cc(C(=O)N2CCCC2)c1 returned RVFV N-RNA inh 102.
O=c1[nH]c(CN2CCNCC2)nc2ccccc12 was read as RVFV N-RNA inh 91.
Cc1c(C(=O)NC2=NCCS2)oc2ccccc12 was read as RVFV N-RNA inh 93.
`CS(=O)(=O)c1ccc(-c2nc(-c3ccc(F)cc3)c(-c3ccncc3)[nH]2)cc1` gave RVFV N-RNA inh 113.
For CCSC(=N)N the results were RVFV N-RNA inh 96.
Cc1ccc(C(=O)NN2CCc3cc4ccc(C)cc4nc32)cc1 was read as RVFV N-RNA inh 91.
`COc1cccc(N2CCc3c(C)nc4ccc(Cl)cc4c32)c1` gave RVFV N-RNA inh 94.
`CCC1CCCCN1C(=O)CN1C(=O)c2ccccc2S1(=O)=O` (centres undefined) gave RVFV N-RNA inh 101.
C=CCOc1cccc(C(=O)NCCOC)c1 was read as RVFV N-RNA inh 89.
`C=C1C(=O)O[C@@H]2[C@H]3O[C@]3(C)CCC=C(C)CC[C@@H]12` gave RVFV N-RNA inh 94.
`O=C(Nc1ccccc1)C(C(F)(F)F)C(F)(F)F` gave RVFV N-RNA inh 82.
Screening CNS(=O)(=O)c1ccc2nc(N)sc2c1 returned RVFV N-RNA inh 87.
CN(CCCN1c2ccccc2CCc2ccccc21)CC(=O)c1ccc(Cl)cc1 was read as RVFV N-RNA inh 96.
`Nc1c2c3c(sc2nc(=O)n1N)CCCC3` gave RVFV N-RNA inh 92.
`O=C(CCNc1ccccc1C(=O)O)c1ccccc1` gave RVFV N-RNA inh 95.
Screening CCN1C(N)=C(C#N)C(c2ccc3[nH]c4ccccc4c3c2)c2nc(C)oc21 (centres undefined) returned RVFV N-RNA inh 99.
Screening Cc1cc(I)ccc1NC(=O)CC(C)C returned RVFV N-RNA inh 104.
O=C(/C=C/c1cccs1)N1CCCN(C(=O)/C=C/c2cccs2)CC1 was read as RVFV N-RNA inh 97.
Screening Cc1ccc(C(=O)Nc2ccc3c(c2)n(C)c(=O)n3C)cc1 returned RVFV N-RNA inh 89.
Cc1cc(C)n2nc(C(=O)Nc3cccnc3)cc2n1 was read as RVFV N-RNA inh 95.
Screening COc1c(Cl)cnn(-c2cccc(C)c2)c1=O returned RVFV N-RNA inh 93.
`O=c1[nH]c(Nc2ccc3c(c2)OCO3)nnc1Cc1ccc(F)cc1` gave RVFV N-RNA inh 93.
`COC(=O)NC(=O)c1ccc(Cl)cc1` gave RVFV N-RNA inh 99.
`O=C(c1ccccc1)N(Cc1ccco1)CC(O)Cn1c2ccccc2c2ccccc21` (centres undefined) gave RVFV N-RNA inh 100.
COc1ccc(CC(=O)n2[nH]c(=O)c3ccccc3c2=O)cc1OC was read as RVFV N-RNA inh 99.
For COc1ccc(N2CC(NC(=O)NCC3CCCO3)CC2=O)cc1OC (centres undefined) the results were RVFV N-RNA inh 110.
For Cc1ccc(-n2c(-c3cnccc3C(F)(F)F)noc2=O)c(C)c1 the results were RVFV N-RNA inh 107.
Cc1cc2ncn(CCc3ccccc3)c2cc1C was read as RVFV N-RNA inh 99.
Screening CC1=NN(C(=O)COc2ccccc2C)C(O)(c2ccc(Cl)cc2)C1 (centres undefined) returned RVFV N-RNA inh 82.
`CSc1sc(Cl)c(Cl)c1S(=O)(=O)C(C)C` gave RVFV N-RNA inh 97.
For NS(=O)(=O)c1ccc(C2CCCCC2)cc1 the results were RVFV N-RNA inh 103.
For CCOC(=O)C1CCCN(C(=O)c2cccc(NC(=O)C(CC)CC)c2)C1 (centres undefined) the results were RVFV N-RNA inh 97.
Screening CSc1ccc(/C=N/NC(=O)C2CC2)cc1 returned RVFV N-RNA inh 97.
Screening CC(C)n1cc(/C=C(\C#N)S(=O)(=O)c2ccccc2)c2ccccc21 returned RVFV N-RNA inh 92.
Screening CCOc1ccc2nc(SCC(=O)NC3CC3)sc2c1 returned RVFV N-RNA inh 90.
For Cn1c(Cn2c(=O)sc3ccccc32)nnc1SCC(=O)Nc1ccc2c(c1)OCO2 the results were RVFV N-RNA inh 94.
Cc1cccc(CC(=O)Nc2c(C(N)=O)oc3ccccc23)c1 was read as RVFV N-RNA inh 97.
`CCN(CC)C(=O)Cn1cnc2c(cnn2-c2cccc(Cl)c2)c1=O` gave RVFV N-RNA inh 97.
For CCC(c1nc2ccccc2c(=O)n1CCCn1ccnc1)N1C(=O)c2ccccc2C1=O (centres undefined) the results were RVFV N-RNA inh 95.
O=C(NCc1ccccc1)c1ccc(=O)[nH]n1 was read as RVFV N-RNA inh 90.
COC(=O)N[C@H](C(=O)N[C@@H](Cc1ccccc1)[C@@H](O)CN(Cc1ccc(-c2ccccn2)cc1)NC(=O)[C@@H](NC(=O)OC)C(C)(C)C)C(C)(C)C was read as RVFV N-RNA inh 101.
Screening Cn1cc(/C=N/NC(=O)C(O)c2ccccc2)c2ccccc21 (centres undefined) returned RVFV N-RNA inh 107.
Screening O=C(CSc1nc2c(oc3ccccc32)c(=O)n1C1CCCC1)Nc1nccs1 returned RVFV N-RNA inh 94.
For CN(C)CCN(C)Cc1ccccc1 the results were RVFV N-RNA inh 90.
Screening CN(N)c1nc(-c2ccccc2)cc(-c2ccccc2)n1 returned RVFV N-RNA inh 104.

Among those listed so far, six have a cyano group.
For CC(=O)Oc1ccccc1C(=O)Oc1ccc(C#N)cc1 the results were RVFV N-RNA inh 89.
Screening N#Cc1ccc(Nc2ccccc2)c(N)c1 returned RVFV N-RNA inh 92.
Screening COCc1cc(C)nc(SCC(=O)OC(C)C)c1C#N returned RVFV N-RNA inh 96.
Screening CC(=O)Nc1sc2c(c1C#N)CCN(C(C)=O)C2 returned RVFV N-RNA inh 95.
Screening CCN1C(N)=C(C#N)C(c2ccc3[nH]c4ccccc4c3c2)c2nc(C)oc21 (centres undefined) returned RVFV N-RNA inh 99.
Screening CC(C)n1cc(/C=C(\C#N)S(=O)(=O)c2ccccc2)c2ccccc21 returned RVFV N-RNA inh 92.

High-throughput results deposited in PubChem by ICCB-Longwood Screening Facility, Harvard Medical School.
